Vif A3G – inhibitors of Vif binding to APOBEC3G peptide, primary screen, biochemical, TR-FRET, GST-Vif 1-94, biotin-A3G peptide, dose response retest (AID 1117319); TR-FRET GST-Vif / biotin-A3G peptide binding; higher % means a stronger effect; test concentration not given here; strong numbers were not always called active; one-dose inhibition, %; IC50 in µM for titrated hits; actives 0.57% (n = 260,000);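 active means above the screen mean plus three standard deviations and confirmed in dose response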;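 further: Vif residues 1-94 fused to GST binding biotinylated APOBEC3G peptide 110-148; 0% = full assay without inhibitor and 100% = GST in place of GST-Vif; retest series ran down from 100 µM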
HNF4A DNA FP – change in binding of human HNF4 alpha to DNA | P41235 | HNF4a-FITC DNA binding, fluorescence polarization, 1 h | activity change, % at 10 µM | AID 1224865 | actives 0.3% (n = 360,000); in the data active means activity change above about 30%, passing the limit was not always enough;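 further: controls were the assay level and a saturating level of protein; the project sought stronger binding though the title names inhibitors; some compounds called inactive have numbers as strong as hits; positive values seem to mean higher polarization but the record does not say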
Target sequence (P41235 whole entry, looked up): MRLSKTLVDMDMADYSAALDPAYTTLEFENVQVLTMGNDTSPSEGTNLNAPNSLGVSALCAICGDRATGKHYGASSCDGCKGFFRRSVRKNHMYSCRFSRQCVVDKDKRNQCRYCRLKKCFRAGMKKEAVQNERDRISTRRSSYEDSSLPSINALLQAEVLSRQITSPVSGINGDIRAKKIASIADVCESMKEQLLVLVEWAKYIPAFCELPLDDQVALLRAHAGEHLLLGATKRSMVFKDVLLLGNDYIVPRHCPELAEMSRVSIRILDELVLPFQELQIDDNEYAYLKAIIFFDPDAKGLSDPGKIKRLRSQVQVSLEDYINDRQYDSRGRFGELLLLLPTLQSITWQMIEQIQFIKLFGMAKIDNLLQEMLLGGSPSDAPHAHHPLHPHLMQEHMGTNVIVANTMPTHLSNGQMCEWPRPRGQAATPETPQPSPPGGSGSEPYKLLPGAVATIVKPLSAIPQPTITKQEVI
Numbers without * were called inactive. Not all compounds are listed (hit frequency here may not be typical).

SMILES | Vif A3G | HNF4A DNA FP
COc1ccc(CCC(=O)O)c(C(CC(=O)O)C(=O)O)c1OS(=O)(=O)c1ccc(C)cc1 (stereo unspecified) | -4% | 1.0
CC(=O)Nc1ccc(NC(=O)CSc2nc(=O)n(CCCN3CCOCC3)c3c2CCC3)cc1 | -2% | -1.8
COc1ccc(NC(=O)N(C)C[C@H]2OCc3cnnn3CCCC(=O)N([C@H](C)CO)C[C@@H]2C)cc1 | 0% | -9.8
COCC(C)NC(=O)C1CC(=O)N(CCc2ccc(F)cc2)C1 (stereo unspecified) | -10% | -2.9
O=C(CSc1nc(=O)n(CCN2CCOCC2)c2c1CCCC2)Nc1ccccc1Cl | -6% | 5.6
Cc1ccc(S(=O)(=O)N2C[C@H]3C(=O)C[C@@H](c4ccc(Cl)cc4)N(S(=O)(=O)c4ccccc4C)[C@H]3C[C@H]2c2ccc(Cl)cc2)cc1 | 2% | 3.4
CCOc1ccc(S(=O)(=O)N2CCOCC2)cc1NC(=O)CCN1C(=O)NC2(CCCC2)C1=O | 8% | -2.5
O=C(Oc1ccc[nH]c1=O)c1ccc(F)cc1 | 2% | -0.4
Cc1ccc(S(=O)(=O)N2CCN(C(=O)c3ccc(-n4cncn4)c([N+](=O)[O-])c3)CC2)c(C)c1 | 5% | -0.9
Cc1ccc(Cc2c(-c3ccc(Br)cc3)nc3cc(C)ccn23)cc1 | 0% | 2.1
COc1ccc(NC(=O)N(C)C[C@@H]2Oc3ncc(Br)cc3C(=O)N([C@@H](C)CO)C[C@@H]2C)cc1 | -1% | 0.8
CN1CCn2cnc(C(=O)N[C@@H](Cc3ccccc3)C(=O)OC(C)(C)C)c2C1=O | 2% | 1.4
COc1ccc(C2NC(=O)NC(C)=C2C(=O)OC2CCCCC2)cc1 (stereo unspecified) | -1% | 1.7
COc1cc2c(cc1[N+](=O)[O-])-c1ccc([N+](=O)[O-])cc1C2=NNC(N)=S | 1% | -4.8
Cc1cc(C)c(NC(=O)C2CCN(S(C)(=O)=O)CC2)c(C)c1 | -5% | -1.5
CCN(CC)CCOc1ccc(-c2c(C)c3c(ccc4ccccc43)oc2=O)cc1 | 4% | -2.4
COc1ccc(NC(=O)CSc2nnc3n2CCCCC3)cc1S(=O)(=O)N(C)C | -1% | 1.9
CC(C)N1CC2(CC(c3ccccc3C(F)(F)F)=NO2)CN1C(=O)c1ccc(C(C)(C)C)cc1 (stereo unspecified) | 7% | 0.8
O=C(Nc1ccc2c(c1)[C@H]1C[C@@H](CC(=O)N3CCOCC3)O[C@@H](CO)[C@H]1O2)C1CCOCC1 | -4% | -5.0
O=C1OC(c2ccccc2)=CC1=Cc1ccccc1O | 4% | -0.7
CC(C)NC(=O)Nc1ccc2c(c1)C(=O)N([C@@H](C)CO)C[C@H](C)[C@H](CN(C)S(=O)(=O)c1ccccc1)OCCCC[C@H](C)O2 | -2% | -0.6
CCCn1c(=O)c(C(=O)Nc2ccccc2N)c(O)c2ccccc21 | -4% | 1.7
CC(=O)Nc1cccc(C(=O)NN2C(=O)NC3(CCC(C)CC3)C2=O)c1 (stereo unspecified) | 6% | 0.7
CC(=O)Nc1ccc(Cl)cc1C(=O)c1ccc[nH]1 | -3% | -5.4
O=C(Cn1cc(C(=O)C(=O)N2CCOCC2)c2ccccc21)Nc1cccc(C(F)(F)F)c1 | -12% | -4.4
C[C@H]1CN(c2ccc(Br)cc2)C(=O)[C@@H]1CC(=O)Nc1ccccc1 | -6% | 2.7
CCOC(=O)C1(C(=O)OCC)C(C)CC(=O)N1c1ccccc1OC (stereo unspecified) | -1% | -0.7
CCCCN1C(=O)C(CC(=O)NCCN2CCOCC2)CC(C(=O)N2CCOCC2)=C1C (stereo unspecified) | -4% | -1.5
Cc1ccc(S(=O)(=O)N2C[C@H]3N(C(=O)OC(C)C)N(C(=O)OC(C)C)C[C@H](OC(=O)Nc4cccs4)[C@@]3(O)C2)cc1 | 0% | 2.3
Cc1ccc(C(=O)NCC(=O)OCC(=O)N(CC(C)C)c2c(N)n(Cc3ccccc3)c(=O)[nH]c2=O)s1 | -5% | 1.6
CCOCCCNC(=O)Cn1cc2c(n1)-c1c(oc(C(=O)N3CCCC3)c1C)CC2 | 0% | 3.0
Cc1ccc(OCCC(=O)NNC(=O)c2ccncc2)cc1 | 6% | 1.3
FC(F)(F)c1nc2nc(Cl)c(Cl)nc2n1CCCN1CCOCC1 | -2% | -0.5
COc1ccccc1-c1ccccc1C1=CC(=O)CC(C)(C)C1=O | 2% | -0.6
CC1=C(C(=O)Nc2ccccc2C(=O)N2CCN(c3ccccc3)CC2)SCCO1 | -8% | -1.7
O=C(C[C@H]1C[C@@H]2c3cc(NC(=O)C4CCC4)ccc3O[C@@H]2[C@H](CO)O1)NC1CCCCC1 | -1% | -0.8
COc1ccc(CN2C(=O)C(CC(=O)NCCCCc3ccccc3)CC(C(=O)N(C(C)C)C(C)C)=C2C)cc1 (stereo unspecified) | 7% | 2.1
C[C@@H]1CN([C@@H](C)CO)C(=O)CCCn2nncc2CO[C@H]1CN(C)Cc1ccc(Oc2ccccc2)cc1 | -3% | 0.0
CCN(CC)C(=O)C1=C(C)N(Cc2ccccc2)C(=O)C(CC(=O)NC(c2ccccc2)c2ccccc2)C1 (stereo unspecified) | -3% | -0.8
CNC(=O)C1CN(C(=O)c2cccc(S(=O)(=O)N3CCc4ccccc43)c2)c2ccccc2O1 (stereo unspecified) | 6% | -0.2
Cc1ccc(C(C)C)cc1-n1nnc(-c2cccc(Cc3ccc4ccccc4c3)c2)c1C(C)O (stereo unspecified) | 3% | -3.5
Cc1ccc(CN(C)C[C@@H]2OCc3cnnn3CCCC(=O)N([C@@H](C)CO)C[C@H]2C)cc1 | 22% | 1.1
COc1ccc([C@H]2N[C@]3(CCCN(CC4CCCCC4)C3=O)[C@H]3C(=O)N(C)C(=O)[C@@H]23)cc1 | -2% | -8.3
Cc1ccc(C=O)c([B-](F)(F)F)c1 | -9% | -2.8
CCN(C(=O)CN1C(=O)NC2(CCCC2)C1=O)c1nc2c(C)cccc2s1 | 0% | 1.4
Cc1ccc(S(=O)(=O)N2C[C@H]3C(=O)C[C@@H](c4cccc(Cl)c4)N(S(=O)(=O)c4ccc(C)cc4)[C@H]3C[C@H]2c2cccc(Cl)c2)cc1 | -2% | 2.8
CCCc1c(C(=O)N/N=C/c2c[nH]c3ccccc23)nnn1-c1nonc1N | 2% | -0.3
CN(Cc1ccccc1)N=Nc1ccccc1 | 1% | 2.6
CCC/C=C/c1ccc(CN2C(C)C(=O)N(Cc3cn(CCC4OCCO4)nn3)CCS2(=O)=O)cc1 (stereo unspecified) | 3% | 0.5
CC(C)NC(=O)Nc1ccc2c(c1)C(=O)N([C@H](C)CO)C[C@H](C)[C@@H](CN(C)S(=O)(=O)c1ccccc1)OCCCC[C@@H](C)O2 | -2% | 0.7
C[C@H]1CCCCO[C@H](CN(C)Cc2ccccc2)[C@@H](C)CN([C@@H](C)CO)C(=O)c2cc(NC(=O)CCC(F)(F)F)ccc2O1 | -1% | 3.7
C[C@@H]1CN([C@@H](C)CO)C(=O)c2cc(Br)cnc2O[C@@H]1CN(C)Cc1ccc(Oc2ccccc2)cc1 | -1% | -0.4
Cc1n[nH]c2ccc([N+](=O)[O-])cc2c1=O | -7% | 1.6
CC(=O)c1ccc(OCc2cc(C(=O)N(C)CC3COc4ccccc4O3)no2)cc1 (stereo unspecified) | 1% | 2.1
Cc1cn([C@H]2C[C@H](O)[C@@H](CNCc3cc(Br)ccc3OCc3ccccc3)O2)c(=O)[nH]c1=O | -1% | 0.1
Cc1ccc(-c2ccc(CN3C(CC(C)C)C(=O)N(Cc4cn(Cc5ccco5)nn4)CCS3(=O)=O)cc2)cc1 (stereo unspecified) | -2% | -0.1
CC#CCOCC1CN(C)C(=O)O1 (stereo unspecified) | 8% | -0.3
COc1ccc(C=C2CCC3C(CCCC34OCCO4)C2=O)cc1 (stereo unspecified) | 4% | 1.3
CCCNC(=O)N(C)C[C@H]1Oc2cc(Br)ccc2S(=O)(=O)N([C@@H](C)CO)C[C@@H]1C | -4% | -1.9
Cc1ccc([C@@H]2C[C@H]3[C@@H](CN2S(=O)(=O)c2ccc(C)cc2)C(=O)C[C@@H](c2cccc(Cl)c2)N3S(=O)(=O)c2ccc(C)cc2)cc1 | 5% | -2.0

Arranged by molar mass (ascending): some entries from above
SMILES | Vif A3G | HNF4A DNA FP
CN(Cc1ccccc1)N=Nc1ccccc1 | 1% | 2.6
CC(=O)Nc1ccc(Cl)cc1C(=O)c1ccc[nH]1 | -3% | -5.4
COc1ccccc1-c1ccccc1C1=CC(=O)CC(C)(C)C1=O | 2% | -0.6
Cc1cc(C)c(NC(=O)C2CCN(S(C)(=O)=O)CC2)c(C)c1 | -5% | -1.5
COc1ccc(C=C2CCC3C(CCCC34OCCO4)C2=O)cc1 (stereo unspecified) | 4% | 1.3
CCOC(=O)C1(C(=O)OCC)C(C)CC(=O)N1c1ccccc1OC (stereo unspecified) | -1% | -0.7
CCOCCCNC(=O)Cn1cc2c(n1)-c1c(oc(C(=O)N3CCCC3)c1C)CC2 | 0% | 3.0
CC(=O)c1ccc(OCc2cc(C(=O)N(C)CC3COc4ccccc4O3)no2)cc1 (stereo unspecified) | 1% | 2.1
COc1ccc([C@H]2N[C@]3(CCCN(CC4CCCCC4)C3=O)[C@H]3C(=O)N(C)C(=O)[C@@H]23)cc1 | -2% | -8.3
CNC(=O)C1CN(C(=O)c2cccc(S(=O)(=O)N3CCc4ccccc43)c2)c2ccccc2O1 (stereo unspecified) | 6% | -0.2
CC(=O)Nc1ccc(NC(=O)CSc2nc(=O)n(CCCN3CCOCC3)c3c2CCC3)cc1 | -2% | -1.8
CCCNC(=O)N(C)C[C@H]1Oc2cc(Br)ccc2S(=O)(=O)N([C@@H](C)CO)C[C@@H]1C | -4% | -1.9
C[C@@H]1CN([C@@H](C)CO)C(=O)c2cc(Br)cnc2O[C@@H]1CN(C)Cc1ccc(Oc2ccccc2)cc1 | -1% | -0.4

Copied from above for reference:
SMILES | Vif A3G | HNF4A DNA FP
CCCc1c(C(=O)N/N=C/c2c[nH]c3ccccc23)nnn1-c1nonc1N | 2% | -0.3
CN(Cc1ccccc1)N=Nc1ccccc1 | 1% | 2.6

(next part)
SMILES | Vif A3G | HNF4A DNA FP
COc1ccccc1CNC(=O)COC(=O)CCN1C(=O)C2CC=CCC2C1=O (stereo unspecified) | -4% | -3.2
O=C(Nc1nc(-c2ccc([N+](=O)[O-])cc2)cs1)C1=COCCO1 | -3% | 9.3
CCc1cc(-c2nnn(CCC3COCCO3)c2CC)cc(CC)c1-c1cn(CCc2c[nH]c3ccccc23)nn1 (stereo unspecified) | -4% | -6.4
O=C(O)C(Cc1ccccc1)N1C(=O)C2C3CCC(C3)C2C1=O (stereo unspecified) | 13% | -2.0
COc1ccc(OCCOC(=O)CNC(=O)c2ccc(F)cc2)cc1 | 0% | 1.5
FC(F)c1nc2nc(Cl)c(Cl)nc2[nH]1 | -3% | 1.9
COc1ccccc1CCc1nnc(CCC(=O)NCCC2CCCCO2)o1 (stereo unspecified) | -2% | 3.5
C[C@@H]1CN([C@H](C)CO)S(=O)(=O)c2ccc(-c3ccc(C(=O)N(C)C)cc3)cc2O[C@H]1CN(C)C(=O)Cc1ccccn1 | -1% | 2.7
O=C(COC(=O)C1CCC1)Nc1cc(S(=O)(=O)N2CCOCC2)ccc1Cl | -9% | 0.5
O=CC(=Cc1ccccc1)c1ccccc1 | -10% | 3.0
CCOC(=O)c1nc2ccc(C)cc2c2c1C1CC(c3c(Cl)cccc31)N2C(=O)OCc1ccccc1 (stereo unspecified) | -6% | 0.0
CCCN(CC(=O)Nc1ccccc1C)C(=O)/C=C/c1ccc(OC)c(OC)c1 | -4% | 1.8
C[C@H](CO)N1C[C@H](C)[C@@H](CN(C)S(=O)(=O)c2cccs2)OCc2cn(nn2)CCCC1=O | -4% | -1.8
O=C(CC1CCCC1)NNC(=O)c1ccccc1O | -4% | 2.0
Cc1cccc(NC(=O)CSCC(=O)Nc2ccccc2C(=O)N2CCCCC2)c1 | 4% | 3.5
C[C@H](CO)N1C[C@H](C)[C@@H](CN(C)S(=O)(=O)c2ccc(F)cc2)OCc2cnnn2CCCC1=O | -7% | 0.5
Cc1ccc(C2NC(=S)N3C(c4ccc(C)cc4)NC(=S)N23)cc1 (stereo unspecified) | 4% | -8.7
O=C(Cc1ccccc1F)Nc1cc(S(=O)(=O)N2CCCCC2)ccc1N1CCOCC1 | -5% | -1.7
Cc1cn([C@H]2C[C@H](O)[C@@H](CNCC3=Cc4cc(O)ccc4OC3)O2)c(=O)[nH]c1=O | -2% | 4.3
COc1ccc(Nc2nnc(SCC(=O)NC3CCCC3)s2)cc1 | 30% | 5.1
O=S(=O)(/N=C(\c1ccc(F)cc1)N1CCOCC1)c1ccccc1 | 2% | -0.4
CCc1ccc(NC(=O)C(C)OC(=O)Cn2[nH]c(=O)c3ccccc3c2=O)cc1 (stereo unspecified) | -6% | -0.6
C#CCN(C[C@H]1[C@H](OC(=O)NCC2CCCCC2)[C@H](OC(=O)NCC2CCCCC2)C[C@@H](C(=O)OC)[C@H]1C(=O)OC)S(=O)(=O)c1ccc(C)cc1 | 0% | 1.1
COc1ccccc1OCc1cc(C(=O)N(C)CCC2CCOCC2)no1 | 13% | -1.7
CN(C(=O)COC(=O)CSc1ccccc1)c1c(N)n(Cc2ccccc2)c(=O)[nH]c1=O | 4% | -0.1
C[C@H](NC(=O)c1[nH]cnc1C(=O)Nc1ccccc1F)c1ccccc1 | -3% | -5.0
C[C@@H]1CN([C@H](C)CO)C(=O)CCCn2nncc2CO[C@H]1CN(C)S(=O)(=O)c1ccc(Cl)cc1 | -3% | 4.1
Cc1ccc(CN(C)C[C@H]2OCc3cnnn3CCCC(=O)N([C@@H](C)CO)C[C@@H]2C)cc1 | -5% | -0.6

Screening data: PubChem, several laboratories
